# Tg IFNy HTS: T. gondii growth inhibition under IFN-gamma; Toxoplasma gondii growth in IFN-gamma-treated host cells; hits give low values; reference of the scale not given here; activity change, negative = inhibition, %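 (about 20 µM by stock and volumes)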; 69,000 compounds, 3.8% hits; AID 1259416;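 active means below -70%; inconclusive means fit judged invalid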;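 further: host cells are HeLa cells infected with Toxoplasma gondii; parasite growth read as luciferase light; one replicate is shown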
# * = called active by the depositor; u = inconclusive; & = joins results of further samples. Only part of the results is shown. The share of hits here may be higher or lower than overall.
SMILES,Tg IFNy HTS
COCCN1CC(Nc2nc(CCN)nc3ccccc23)CC1=O (stereo not given),3
CCc1ncc(CN2CCCC2CN2Cc3ccccc3OCC2CN(C)C)cn1 (stereo not given),3
COc1ccccc1CN1[C@@H]2CNC[C@H]1C2c1ccc(-c2cccnc2)cc1 (stereo not given in full),13
Cc1nc2c(c(N(C)C)n1)CCN(C(=O)c1cc3sccc3[nH]1)C2,-2
Cc1ccc(C(=O)N2CC[C@@H](c3ccc4ccccc4c3)[C@H](O)C2)c(=O)n1C,1
c1ccc2c(c1)OCCOCCOCCOCCOCCOc1ccccc1-2,22
O=C(Cc1ccccn1)N[C@@H]1CC[C@@H](CCNS(=O)(=O)c2cccc(F)c2)O[C@@H]1CO,99
Cc1ccc2[nH]cc(-c3ccc(S(N)(=O)=O)s3)c2c1,5
O=C(c1cccnc1)N1CCN(CC2CC=CCC2)CC1 (stereo not given),-31
O=C(Cc1cccnc1)N1CC2(C1)[C@@H](c1ccccc1)[C@H](CO)N2C(=O)C1CCOCC1,34
Cc1ccc2c(CN3CCN(Cc4nc(-c5ccccc5C)oc4C)CC3)cc(=O)oc2c1,8
CO[C@H]1CCN(C(=O)c2cc(C)on2)C[C@@H]1Cc1ccccc1,61
O=C(c1cnccn1)N1CCC2(CCCc3ccccc32)CC1,-6
O=C(O)CSc1nnc(Cc2ccncc2)n1-c1cccnc1,16
C[C@@H]1CN([C@@H](C)CO)C(=O)c2ccccc2-c2ccccc2CO[C@H]1CN(C)C(=O)Nc1cccc(Cl)c1Cl,-20
CCN1CCC(n2nccc2NC(=O)c2cccc3c2C(=O)N(CCOC)C3)CC1,13
Cc1noc(C)c1S(=O)(=O)Nc1cccc2c1O[C@@H](CN(C)Cc1ccc(C(F)(F)F)cc1)[C@@H](C)CN([C@@H](C)CO)C2=O,-17
CCN(CC)Cc1cnc2c(C(=O)N3CCC3c3cccs3)cnn2c1 (stereo not given),-5
CCOc1ccc(NC(=O)C(=O)NCCc2csc(-c3cccc(F)c3)n2)cc1,31
COC(=O)[C@H](CC(C)C)NC(=O)c1ccc(NC[C@@H](N)CS)cc1-c1cccc2ccccc12,20
Cc1ccccc1S(=O)(=O)N1C[C@H]2C[C@H](C(=O)NC(C)C)[C@@H](C1)O2,-59
O=C1Nc2ccc(Br)cc2C1O (stereo not given),70
Cc1ccc(C(=O)Nc2cnc(N3CCC(C(N)=O)(N4CCCCC4)CC3)c(C(=O)O)c2)cc1,-3
CC(C)n1nc(COCCN(C)C)c2c1CN(c1nccs1)CC2,0
CCc1nc(NC(=O)c2[nH]c3c(C)cc(C)cc3c2C)n[nH]1,54
CC1(C)CC(=O)c2cc(-c3ccccc3)n(CC(=O)O)c2C1,18
CC(C)(Oc1ccc(Cl)cc1)C(=O)NC1CCSC1=O (stereo not given),10
CC(=O)c1c(C)[nH]c(C(=O)OCc2ccccc2)c1C,154
CCn1c(CC2CCN(C(=O)c3cccc4ncccc34)CC2)nn(C)c1=O,7
COc1ccccc1NC(=O)CN1CCC2(CC1)N=C(c1ccc(Cl)cc1)C(=O)N2,71
C[C@H](NC(=O)C[C@@H]1CC[C@@H]2[C@H](COc3ccc(NS(=O)(=O)c4ccc(Cl)cc4)cc3C(=O)N2C)O1)c1ccccc1,-19
CCCn1cnc(NCc2cccc(OCc3cccnc3)c2)n1,10
CCOC(=O)c1ccc2c(c1)N(Cc1nc(-c3ccccc3C)oc1C)C(=O)c1ccccc1S2,15
CCn1cc(C(=O)N(CCOC)Cc2cccs2)c(=O)c2ccc(C)nc21,5
O=C(NCCc1csc(-c2cccc(F)c2)n1)C(=O)Nc1ccc2c(c1)OCCO2,-7
Cc1ccc(NC(=O)CSc2nc(O)c(Cc3ccccc3)c(=O)n2-c2ccccc2)cc1,11

# Molecules from the list above that have an aryl methoxy group, in the order listed:
SMILES,Tg IFNy HTS
COc1ccccc1CN1[C@@H]2CNC[C@H]1C2c1ccc(-c2cccnc2)cc1 (stereo not given in full),13
COc1ccccc1NC(=O)CN1CCC2(CC1)N=C(c1ccc(Cl)cc1)C(=O)N2,71

# (continued)
SMILES,Tg IFNy HTS
CCc1ccc(CN(CCOC)C(=O)c2cn(C)c3ccccc3c2=O)cc1,6
CCCCC(=O)Nc1ccc(C)cc1NC(=O)C1CC=CCC1 (stereo not given),-2
COc1ccc(C2(NC(=O)Cc3cn(C)c(=O)c4ccccc34)CCCC2)cc1,-4
Cc1ccc(-c2coc(-c3ccc(NC(=O)Nc4ccc(Cl)cc4)cc3)n2)cc1,-11
Cc1ccc(S(=O)(=O)N2CCC3(CC2)Nc2ccccc2-n2cccc23)c(C)c1,29
Cc1ccc(NC(=O)Cn2c(=O)cc(-c3nc(C)no3)c3ccccc32)c(Cl)c1,-13
CN(C)CCN1CCOCC2(CCCN(C(=O)c3ccc4cc[nH]c4c3)C2)C1 (stereo not given),-51
Cc1cc(S(=O)(=O)NCC(=O)N2CCn3cncc3C2)ccc1F,13
CCOc1cc2c(cc1CN1CC3CCCC(C1)C3(O)c1ccc(C)cn1)OC(C)C2 (stereo not given),42
Cc1nccc(-c2cccc(-n3cnnc3)c2)n1,-2
CS(=O)(=O)c1cccnc1C1CCN(C(=O)Cc2csc(-c3ccccn3)n2)CC1,-30
CC(C)c1ccc(NC(=O)Cn2c(=O)cc(C(=O)N3CCOCC3)c3ccccc32)cc1,-4

# Single entries from the entries so far:
# CCc1ccc(CN(CCOC)C(=O)c2cn(C)c3ccccc3c2=O)cc1 in Tg IFNy HTS has 6
# CCCCC(=O)Nc1ccc(C)cc1NC(=O)C1CC=CCC1 (stereo not given) in Tg IFNy HTS has -2

# The list goes on:
SMILES,Tg IFNy HTS
NC(=O)N1CCCC1C(=O)NCc1ccc2[nH]c3c(c2c1)CCCCCC3 (stereo not given),12
COc1cccc(C#Cc2ccc([C@@H]3[C@@H](C#N)N(C(=O)c4ccccn4)[C@H]3CO)cc2)c1,-54
N#Cc1ccc(S(=O)(=O)N2CCC(N3CCOCC3)CC2)cc1,19
CNC(=O)COc1ccccc1-c1ccc(-n2cccn2)cc1,12
O=C(C1CCC1)N1CCCN(Cc2cccc(Cn3cccn3)c2)CC1,5
NC(Cc1ccc(F)cc1)C(=O)NCC1CCC(c2ccnc(Nc3cnccn3)n2)CC1 (stereo not given),-30
O=C(NC(c1ccc(Cl)cc1)c1cccnc1)c1cnc(N2CCCCC2)nc1 (stereo not given),-19
O=C1C(C23CC4CC(CC(C4)C2)C3)C(=O)N(c2ccccc2)N1c1ccccc1,u
Cc1cc(C)n(C(C)C(=O)NC2CCN(Cc3cccc(O)c3)CC2)n1 (stereo not given),-13
COCCN1CCCC(O)(CN2CCC(O)(Cn3ccnc3)CC2)C1=O (stereo not given),-3
COc1ccc(S(=O)(=O)Nc2cccc3c2O[C@@H](CN(C)CC2CCCCC2)[C@H](C)CN([C@H](C)CO)C3=O)cc1,-16
CCn1cncc1C(=O)NC(Cc1cc(=O)[nH]c(N2CCCC2)n1)c1ccc(F)cc1 (stereo not given),14

# Brought forward from above: six compounds, then new ones.
SMILES,Tg IFNy HTS
O=C(NC(c1ccc(Cl)cc1)c1cccnc1)c1cnc(N2CCCCC2)nc1 (stereo not given),-19
O=C1C(C23CC4CC(CC(C4)C2)C3)C(=O)N(c2ccccc2)N1c1ccccc1,u
Cc1cc(C)n(C(C)C(=O)NC2CCN(Cc3cccc(O)c3)CC2)n1 (stereo not given),-13
COCCN1CCCC(O)(CN2CCC(O)(Cn3ccnc3)CC2)C1=O (stereo not given),-3
COc1ccc(S(=O)(=O)Nc2cccc3c2O[C@@H](CN(C)CC2CCCCC2)[C@H](C)CN([C@H](C)CO)C3=O)cc1,-16
CCn1cncc1C(=O)NC(Cc1cc(=O)[nH]c(N2CCCC2)n1)c1ccc(F)cc1 (stereo not given),14
COCCNC(=O)C1CN(Cc2ccncc2)Cc2ccnn2C1 (stereo not given),8
COC(=O)C1C(C(C)C)N(c2ccccc2)OC1(C)O (stereo not given),14
Cc1noc(C)c1S(=O)(=O)N(C)C[C@H]1OCc2ccccc2-c2c(n(C)c3ccccc23)C(=O)N([C@@H](C)CO)C[C@H]1C,-50
CC(=O)OCC(=O)[C@@]1(O)CCC2C3CCC4=CC(=O)CC[C@]4(C)C3[C@@H](O)C[C@@]21C (stereo not given in full),-6&-1
c1ccc(-n2cccc2CN2CCc3[nH]cnc3C2c2cccnc2)nc1 (stereo not given),0
COc1ccc(CNC(=O)N[C@H](C(=O)O)C(C)C)cc1OC,21
CC(c1ccccc1)n1c(SCC(=O)O)nnc1C1CCOCC1 (stereo not given),8
CCc1ccc(S(=O)(=O)N2CCCn3nnc(Cn4cccn4)c3C2)cc1,-47
Cc1ccc(N2C(=O)c3ccccc3C2=O)cc1C,36
CC(C)C(=O)C1CC2(CO1)c1ccccc1CN2C(=O)c1ccccc1 (stereo not given),-3
Cc1occc1C(=O)N1CCC(N(C)Cc2ccccc2)CC1C(=O)O (stereo not given),11
Cc1ccc(C(c2nnnn2CS(=O)(=O)c2ccc(C)cc2)N2CCC(C)CC2)cc1 (stereo not given),21
COc1ccc2[nH]cc(CCNC(=O)c3cc(C)nc4c3c(=O)n(C)c(=O)n4C)c2c1,84
CCOC(=O)c1nc(Nc2cc(C)c(Cl)cc2OC)c2ccccc2n1,-43
O=C(CN1CCOCC1)N[C@H]1CC[C@@H](CCn2cc(C3CC3)nn2)O[C@H]1CO,4
CCc1cccc(OC2OC(CO)C(O)C(O)C2NC(C)=O)c1 (stereo not given),5
CCN1CC[C@@H]2Oc3ccccc3S(=O)(=O)N(CC3CC3)[C@@H]2CC1,2
COc1ccc(-c2nc(Cn3nnc(C(=O)Nc4ccc(C)c(F)c4)c3C)c(C)o2)c(OC)c1,42
C[C@@H]1CN([C@@H](C)CO)C(=O)c2cccc(NC(=O)c3ccc(-c4nccs4)cc3)c2O[C@H]1CN(C)C(=O)Nc1ccc(C(F)(F)F)cc1,11
CCc1nc(OCC(=O)Nc2cccc(Cl)c2)c2ccccc2n1,4
CCc1csc(-c2ccc(S(=O)(=O)NCCN3CCC(C)CC3)s2)n1,-48
Cc1cccc(S(=O)(=O)N2CC(C(=O)Nc3cccc(F)c3)C3(CCOCC3)C2)c1 (stereo not given),54
COc1ccccc1N1CCN([C@H]2CN(C(=O)CCC(C)C)C[C@@H]2O)CC1,-8
COc1ccc2c3c(n(C)c2c1)[C@@H](CO)NCC31CN(Cc2ccc(-c3ccccn3)cc2)C1,-56
NC(=O)CC(CC(N)=O)c1c(Cl)cccc1Cl,-57
CCNc1ncc(CN2CCN(C)C3(CCN(C(=O)COC)CC3)C2)cn1,-35
CC1CCCN(S(=O)(=O)N(C)Cc2nnc(-c3ccccc3)o2)C1 (stereo not given),10
O=C(O)c1cc2nc3c(c(C(F)(F)F)n2n1)CCC3,-34
COCCCNC(=O)c1cc(-c2cnc(N(C)C)nc2)cn1CC1CC1,-7
O=C(NCc1noc(Cc2cccs2)n1)c1cnc2ccccn12,16
Cc1ccc(C2(O)CCN(C(=O)C3CCOC3)CC2)nc1 (stereo not given),-6
Cc1ccc(CNc2nc(-c3nnc(-c4cccc(C)c4)o3)nc3ccccc23)cc1,-68
CS(=O)(=O)N1[C@H](CO)[C@@H](c2ccc(-c3ccccc3F)cc2)[C@@H]1C#N,22
Cc1cc(C)n(CC(=O)N2CCC3(CN(C)C(=O)O3)C2)c(=O)n1 (stereo not given),60
CC(C)N1CCOCC2(C1)CN(S(=O)(=O)C1CC1)CCO2 (stereo not given),6
Cc1nc(-c2ccc(Cl)cc2)sc1CCNC(=O)C(=O)Nc1ccc(F)cc1F,159
Cc1ccc(-c2nc(N)n(S(C)(=O)=O)n2)cc1,19
Cc1oncc1C(=O)N1CCCC2(CC(CN3CCCC3)CO2)C1 (stereo not given),-45
S=C1NN=C(c2ccccc2)CS1,-16
COc1ccc2c3c(n(C)c2c1)[C@H](CO)N(C)CC31CN(C(=O)Nc2c(C)noc2C)C1,-19
CCCN(CCC)S(=O)(=O)c1ccc(C(=O)SCC(=O)OCC)cc1,38
COc1ccccc1C(CC(=O)Nc1nccs1)c1ccc2c(c1)OCO2 (stereo not given),-38
C[C@H](CO)N1C[C@H](C)[C@@H](CN(C)Cc2ccc(C(=O)Nc3ccccc3N)cc2)Oc2ccc(NC(=O)Cn3cnnn3)cc2C1=O,19
CCOc1ccc(C(=O)O)cc1CN(C)C,-20
O=S(=O)(NCc1ccccc1)Nc1cccnc1Oc1ccccc1F,17
CCN1CCCn2c(nc(CNc3ccccn3)cc2=O)C1,18
CN1C(=O)c2cc(NC(=O)c3cscn3)ccc2OC[C@H]2O[C@H](CC(=O)NCc3ccc(Cl)c(Cl)c3)CC[C@@H]21,-17
O=C(c1cccc(Cl)c1)N1CCN(S(=O)(=O)c2cc3c4c(c2)CCN4C(=O)CC3)CC1,-14
CCC(C(=O)N1CCN(c2ccccn2)CC1)n1c2ccccc2c2cnn(C)c(=O)c21 (stereo not given),-73*
Cc1ccc(C(=O)N2CCO[C@H]3[C@@H](OCC4CC4)CC[C@H]32)cn1,-56
CCc1ccccc1NC(=O)CN1CCC2(CC1)N=C(c1ccc(Cl)cc1)C(=O)N2,52
CCN1C(=O)N(Cc2cccc(OC)c2)C(=O)C12CCN(Cc1ccc(N3CCCC3)cc1)CC2,-14
Cc1ccc(S(=O)(=O)N[C@H]2C=C[C@@H](CC(=O)NCc3ccc(Cl)c(Cl)c3)O[C@@H]2CO)cc1,-7

# Assay outcomes as filed in PubChem BioAssay.
